INS promoter inh = inhibitors of insulin promoter-driven GFP, primary screen, imaging, TRM-6 cells (human fetal islet line), eGFP reporter, cell count; reporter expression induced with tamoxifen; hit rate 0.9% among 130,000; inhibition, % at 2 µM; AID 1273, 2008;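 active = inhibition above the mean plus 3 SD, with well images judged a real hit on visual review, cut at about 60% in these data, passing the limit was not always enough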
PKD1 kinase inh = inhibitors of human PKD1 kinase, biochemical, fluorescence polarization; Serine/threonine-protein kinase D1 (Homo sapiens), Q15139; PKD1 kinase fluorescence polarization assay; inhibition, %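 (about 10 µM by stock and volumes)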; hit rate 0.056% among 200,000; AID 797, 2007;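 active = inhibition of 50% or more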;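 note: controls were vehicle for no effect and a reference inhibitor for full effect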
Target sequence (Q15139 whole entry, looked up): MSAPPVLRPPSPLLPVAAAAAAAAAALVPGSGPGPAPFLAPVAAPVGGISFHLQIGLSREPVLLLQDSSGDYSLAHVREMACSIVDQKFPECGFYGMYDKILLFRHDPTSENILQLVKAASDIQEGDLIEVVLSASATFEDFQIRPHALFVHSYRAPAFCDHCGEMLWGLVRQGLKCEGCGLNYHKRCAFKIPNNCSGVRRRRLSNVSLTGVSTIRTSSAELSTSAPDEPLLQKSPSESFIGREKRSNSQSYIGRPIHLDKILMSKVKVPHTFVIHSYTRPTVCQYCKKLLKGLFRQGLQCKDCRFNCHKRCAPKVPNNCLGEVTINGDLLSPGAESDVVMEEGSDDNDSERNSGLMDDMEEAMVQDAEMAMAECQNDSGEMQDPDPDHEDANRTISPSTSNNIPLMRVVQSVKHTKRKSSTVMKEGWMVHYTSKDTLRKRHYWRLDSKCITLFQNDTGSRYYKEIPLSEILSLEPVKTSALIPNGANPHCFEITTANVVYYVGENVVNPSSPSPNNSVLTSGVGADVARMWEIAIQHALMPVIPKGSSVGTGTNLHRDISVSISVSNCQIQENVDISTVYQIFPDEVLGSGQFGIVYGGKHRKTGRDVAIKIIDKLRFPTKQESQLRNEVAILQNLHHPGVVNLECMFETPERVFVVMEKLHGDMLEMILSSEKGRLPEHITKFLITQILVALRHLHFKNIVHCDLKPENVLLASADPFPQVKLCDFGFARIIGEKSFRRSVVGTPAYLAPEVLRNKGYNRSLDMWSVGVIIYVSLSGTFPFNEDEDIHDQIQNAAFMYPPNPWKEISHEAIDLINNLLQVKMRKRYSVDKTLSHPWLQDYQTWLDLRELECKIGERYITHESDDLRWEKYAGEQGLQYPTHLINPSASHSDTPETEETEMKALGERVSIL
GALR2 agonist = GALR2 receptor agonists, primary screen, cell-based; GALR2-expressing cells, agonist activation read-out; Galanin receptor type 2 (Homo sapiens), O43603; hit rate 0.48% among 140,000; AID 803, 2007; activation, %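 (tested at 5 µM)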;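 active = above mean plus 3 SD of all compounds, about 5% in these data, not always enough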;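 note: 0% = vehicle buffer wells and 100% = reference agonist at full effect; tested in CHO reporter cells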
HSV augment = enhancers of HSV replication in host cells, fold increase, host cell viability; HSV replication augmentation in cells; maximum fold increase; hit rate 0.005% among 220,000; AID 1956, 2009;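 active = peak rise of 1.5-fold or more in the series; tested in PC3 cells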;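 note: first round at 10 µM; read as green reporter fluorescence; hits show the peak of a series up to 25 µM; 1 = signal of infected wells without compound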
RGS16-Gao HTS = modulators of RGS16 binding to Galphao, primary screen, biochemical, human proteins, multiplexed bead flow cytometry. AID 1441, 2008. binding response (% of control), % at 10 µM. bead-based flow cytometry RGS16-Galphao binding, fluorescence; actives lie on both sides. hit rate 0.38% among 220,000. Regulator of G-protein signaling 16 (Homo sapiens) + Guanine nucleotide-binding protein …;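 active = below 25% or above 175%, edge rows of some plates excepted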;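 note: Galphao activated by GDP with aluminum fluoride before binding; 100% = wells without compound and 0% = beads without RGS; some results beyond the cut were filed as inactive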
INS promoter inh cell count = further read-out of INS promoter inh, marked with its call; normalized cell count, %; measured here: cell count, toxicity; reference of the scale not given here;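 cells exposed to compound for 48 h; stained nuclei by imaging scaled within each plate; lower means fewer cells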
HSV augment primary fold = second read-out of HSV augment, no call of its own (marks repeat the call); fold increase; compound at 10 µM; measured here: primary screen fold increase 10 uM; tested in PC3 cells;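 GFP signal in the first replicate; 1 = infected wells without compound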
An asterisk follows results filed as active; i = inactive; nt = no result given.

SMILES	INS promoter inh	INS promoter inh cell count	PKD1 kinase inh	GALR2 agonist	HSV augment	HSV augment primary fold	RGS16-Gao HTS
COc1ccc(C(=O)C2CCCN(C(=O)c3ccccc3C(C)=O)C2)cc1F (stereo not given)	nt	nt	2	nt	i	0.94	99
CCOc1cc(/C=N/NC(=O)COc2nc(C)cc(COC)c2C#N)ccc1O	nt	nt	1	-0.4	i	0.9	103
c1cc2c3c(cccc3c1)C(N1CCCCCC1)=N2	63	160	1	-0.8	nt	nt	102
C=CCn1c(SCC(=O)OCc2ccccc2)nc2c1c(=O)n(C)c(=O)n2C	nt	nt	-7	-4.3	i	1	95
C/C(=C1/SC(=S)N(CCC(=O)O)C1=O)c1ccc(O)cc1	-29	129	-9	-0.3	i	1.3	78
O=C(Nc1ccccc1)Nc1ncc([N+](=O)[O-])s1	28	77	-3	nt	i	0.79	58
CCOc1ccc(S(=O)(=O)N(C)c2ccc(OCC(=O)Nc3nccs3)cc2)cc1	-12	155	0	nt	i	1.1	99
O=C(c1ccc(Cl)cc1)N1CCC(O)(CSc2ccccc2)CC1	nt	nt	-12	-1.5	i	0.87	105
COc1ccc(NC(C)=O)cc1NC(C)C(=O)Nc1ccc(F)c(F)c1F (stereo not given)	29	87	-9	-0.8	i	0.99	101
CC(C)c1nc(SCC(=O)N2CCN(c3ccccc3)CC2)c2c(=O)n(C)c(=O)n(C)c2n1	0	177	-5	0.4	i	0.75	98
c1coc(CNCC2OCCc3ccccc32)c1 (stereo not given)	nt	nt	4	-0.2	i	0.73	107
Cc1ccc(NC(=O)c2ccc3c(c2)S(=O)(=O)c2ccccc2C3=O)cc1S(=O)(=O)N1CCOCC1	nt	nt	nt	nt	i	0.88	101

4 entries from above, ordered by molar mass, rising:
SMILES	INS promoter inh	INS promoter inh cell count	PKD1 kinase inh	GALR2 agonist	HSV augment	HSV augment primary fold	RGS16-Gao HTS
c1coc(CNCC2OCCc3ccccc32)c1 (stereo not given)	nt	nt	4	-0.2	i	0.73	107
C/C(=C1/SC(=S)N(CCC(=O)O)C1=O)c1ccc(O)cc1	-29	129	-9	-0.3	i	1.3	78
COc1ccc(C(=O)C2CCCN(C(=O)c3ccccc3C(C)=O)C2)cc1F (stereo not given)	nt	nt	2	nt	i	0.94	99
Cc1ccc(NC(=O)c2ccc3c(c2)S(=O)(=O)c2ccccc2C3=O)cc1S(=O)(=O)N1CCOCC1	nt	nt	nt	nt	i	0.88	101

(continued)
SMILES	INS promoter inh	INS promoter inh cell count	PKD1 kinase inh	GALR2 agonist	HSV augment	HSV augment primary fold	RGS16-Gao HTS
Cc1nc2nc(Cc3ccccc3)[nH]n2c(=O)c1Cl	30	131	-3	0.3	i	0.78	99
Cc1ccc([N+](=O)[O-])cc1N/C=C1\CCCCC1=O	nt	nt	2	nt	i	0.91	98
Nc1ccc(C(CC(=O)O)n2cccc2)cc1 (stereo not given)	-18	190	-10	nt	i	1.1	96
O=C(COc1ccc2ccccc2c1)N/N=C/c1ccccn1	nt	nt	-6	nt	i	0.91	108
COc1cc(NC(=O)CSc2nc3[nH]ncc3c(=O)n2-c2ccccc2C)cc(OC)c1OC	-39	127	3	-0.4	i	0.92	112
CCn1c(=N)n(CC(=O)C23CC4CC(CC(C4)C2)C3)c2ccccc21	26	137	-8	0.0	i	1.1	-27
CCCOc1ccc(/C(O)=C2/C(=O)C(=O)N(CCCN3CCOCC3)C2c2ccncc2)cc1 (stereo not given)	nt	nt	-7	nt	i	1	98
Clc1ccc(Nc2nc(-c3ccncc3)cs2)cc1	35	97	-1	-2.1	i	0.94	nt
Cc1cc(C)nc(NC(=O)c2cc3ccccc3o2)n1	nt	nt	6	0.3	i	0.66	99
CCC(=O)N(Cc1cc(=O)[nH]c2ccccc12)c1cccc(C)c1	nt	nt	3	-0.8	i	0.98	103
N#CC1=C(N)Oc2n[nH]c(-c3ccccc3)c2C1c1ccsc1 (stereo not given)	-375	47	10	-4.0	i	0.98	100
CCCSc1nc2c(cnn2-c2ccc(Cl)cc2)c(=O)[nH]1	nt	nt	-12	-1.0	i	0.84	103
COc1ccc(/C=C/C(=O)OCn2c(SC)nnc(C)c2=O)cc1OC	25	100	-1	nt	i	0.86	93
CCN(CC)Cc1nc2sc(C)c(C)c2c(=O)[nH]1	nt	nt	-4	nt	i	1	104
CCOC(=O)C1CCN(C2=C(NS(=O)(=O)c3ccc(Cl)cc3)C(=O)c3ccccc3C2=O)CC1	nt	nt	nt	nt	i	0.99	98
CCn1cc(C(=O)OCC(=O)c2cc(C)n(-c3cccc(C(F)(F)F)c3)c2C)c(=O)c2ccc(C)nc21	nt	nt	-4	-0.4	i	0.97	100
CCOC(=O)C1CCCN(C(=O)c2ccc(OC)c([N+](=O)[O-])c2)C1 (stereo not given)	nt	nt	-2	-0.8	i	0.88	106
C/C(=N\Nc1ccc([N+](=O)[O-])cc1)c1ccc(N2CCOCC2)cc1	nt	nt	nt	nt	i	0.91	97
O=C(Cn1cc(C(F)(F)F)ccc1=O)N/N=C/c1ccccc1O	nt	nt	nt	nt	i	1.1	96
NC(=O)c1cnn2c1NC(c1ccc(F)cc1)CC2C(F)(F)F (stereo not given)	6	112	2	-1.3	i	0.89	103
C#CCNC(=O)C1=C[C@@H](c2coc3ccccc3c2=O)C[C@@H](OCCCCO)O1	nt	nt	4	nt	i	0.78	98
Cc1nc(Cl)c(Cl)n1CCOc1ccccc1	nt	nt	nt	nt	i	0.85	-7.5*
COC(=O)c1[nH]c2cccc(OC)c2c1NC(=O)CN1CCN(c2cccc(OC)c2)C(C)C1 (stereo not given)	12	96	-13	-2.2	i	0.91	96
O=C(Cc1csc(N2CCOCC2)n1)N/N=C/c1cccc(O)c1	16	68	-7	-1.4	i	1.1	99
Cc1ccc2oc(=O)c3cnn(CC(=O)N(CCC(C)C)Cc4ccco4)c3c2c1	nt	nt	-9	-2.6	i	0.99	100
CCCc1nnc(SCC(=O)N2CCCCC2C)n1CCOC (stereo not given)	nt	nt	-4	nt	i	0.97	60
CC(=O)Nc1c(N)c2ccccc2oc1=O	nt	nt	-3	nt	i	0.87	97
CC(=O)/C(=C/N(C)C)Sc1ccc(C)cc1	18	142	-4	-1.6	i	1	102
CC(=O)Nc1ccc(S(=O)(=O)Nc2nc3ccccc3nc2N2CCCCCC2)cc1	30	75	-5	-1.7	i	0.89	106
CSc1nc(C2CC2)cc(-c2cccs2)c1C#N	-8	101	-1	0.2	i	0.85	103
CCOC(=O)c1cnn(-c2ncnc3sc(CC)cc23)c1N	-436	41	6	3.9	i	0.81	102
O=C(CSc1nnc(NC(=O)CN2CCOCC2)s1)Nc1ccccc1	nt	nt	-4	-0.6	i	0.95	101
Cc1cc(C)c(NC(=O)Cn2nnc(C(=O)NCc3ccco3)c2N)c(C)c1	nt	nt	7	nt	i	0.84	100
O=C(N/N=C/C=C/c1ccccc1)c1cc(C2CC2)[nH]n1	nt	nt	nt	nt	i	0.71	100
CC(C)N1C(=O)CC(Nc2cccc3cccc(N)c23)C1=O (stereo not given)	nt	nt	3	nt	i	1.3	102
CCOc1ccc(/C=N/n2cnnc2)cc1	25	184	-14	-1.6	i	1.1	105
CCOC(=O)COc1ccc(/C=C2\NC(=S)N(CC)C2=O)cc1	39	89	-11	-1.8	i	0.8	97
O=C(c1ccc(Cl)cc1)c1cnc(-c2ccc(Cl)cc2)s1	17	112	-5	-2.4	i	0.84	104
Cc1cccc(C)c1NC(=O)C1CC(=O)N(C(C)C)C1 (stereo not given)	nt	nt	-4	0.8	i	1.1	101
CCCNC(=O)Cc1cc(=O)[nH]c(=O)[nH]1	nt	nt	0	-1.0	i	0.98	103
Clc1ncc(CN2CCN(Cc3ccccc3)CC2)s1	nt	nt	-3	-1.0	i	1	101
CN(c1ccc(OCC(=O)OCC(=O)Nc2ccc(Br)cc2)cc1)S(=O)(=O)c1cccs1	22	75	-4	-1.6	i	0.92	119
CSCC[C@H](Nc1ncnc2sc(C)c(C)c12)C(=O)O	-31	130	1	-0.6	i	0.95	103
CC1(C(=O)O)CCC(C(=O)Nc2ccc3ccccc3c2)C1(C)C (stereo not given)	0	89	7	-0.3	i	0.8	86
CC1(C)Cc2ccccc2C(CSc2ccccc2C(=O)O)=N1	nt	nt	-5	nt	i	1	98
O=C(CSc1ccc(-c2cccc([N+](=O)[O-])c2)nn1)N1CCCC1	nt	nt	0	nt	i	0.92	99
CC(C(=O)NCC1CCCCC1)N1CCN(S(=O)(=O)/C=C/c2ccccc2)CC1 (stereo not given)	-4	99	-4	0.7	i	0.86	103
O=C(NC(=S)Nc1ccccc1N1CCCC1)c1cccc(F)c1	nt	nt	-8	nt	i	0.95	101
CCN1CCCC1CNC(=O)c1cc(OC)c(OC)c(OC)c1 (stereo not given)	-36	94	6	-2.4	i	0.99	100
COc1ccc(Cl)cc1NC(=O)Nc1cccc([N+](=O)[O-])c1C	-24	84	4	-1.0	i	0.62	102
c1ccc(-n2cc(CNCCc3cscn3)c(-c3ccc4c(c3)OCO4)n2)cc1	nt	nt	-7	nt	i	0.94	120
O=C(C1CCCO1)N1CCN(c2ccc(F)cc2)CC1 (stereo not given)	67	115	-8	-1.1	i	0.84	112
Cc1nn(-c2ccc(Cl)c(Cl)c2)c(C)c1C(=O)O	nt	nt	-3	nt	i	0.98	97
COc1cccc(-c2nn(-c3ccccc3)cc2C(=O)NCC(=O)O)c1	38	104	5	-1.5	i	0.87	96
Cc1cccc(-n2c(O)c(C=Nc3ccccc3N)c(=O)[nH]c2=O)c1	-61	46	-6	-1.0	i	0.82	101
C=CCCN(C(CC(C)C)C(=O)OC)S(=O)(=O)c1ccccc1Br (stereo not given)	nt	nt	nt	nt	i	1.1	103
Cc1ccc2c(c1)N(CCC(=O)NCCCOC(C)C)C(=O)C(C)O2 (stereo not given)	-27	92	0	-1.9	i	0.85	97
COCCCNC(=O)Cn1nnc(-c2ccc(NC(=O)c3cccnc3)cc2)n1	-7	74	-11	nt	i	0.79	104
Cc1cc(C(=O)N/N=C/C=C/c2ccccc2)n[nH]1	nt	nt	nt	nt	i	0.79	105
COc1ccc(OC)c([N+](=O)[O-])c1C(N)=O	22	119	1	nt	i	1.1	94

With a hit mark in RGS16-Gao HTS, among the entries above:
structure	PKD1 kinase inh	GALR2 agonist	HSV augment primary fold	RGS16-Gao HTS
Cc1nc(Cl)c(Cl)n1CCOc1ccccc1	nt	nt	0.85	-7.5*

Looked up one by one from the list above (two):
SMILES	INS promoter inh	INS promoter inh cell count	PKD1 kinase inh	GALR2 agonist	HSV augment	HSV augment primary fold	RGS16-Gao HTS
c1ccc(-n2cc(CNCCc3cscn3)c(-c3ccc4c(c3)OCO4)n2)cc1	nt	nt	-7	nt	i	0.94	120
CCN1CCCC1CNC(=O)c1cc(OC)c(OC)c(OC)c1 (stereo not given)	-36	94	6	-2.4	i	0.99	100

(cont.)
SMILES	INS promoter inh	INS promoter inh cell count	PKD1 kinase inh	GALR2 agonist	HSV augment	HSV augment primary fold	RGS16-Gao HTS
CCOC(=O)c1c(C)[nH]c(C(=O)Cn2c(=O)oc3ccccc32)c1C	-41	61	2	0.5	i	0.99	99
CCNC(=S)NNC(=O)Nc1ccccc1	24	140	-2	-1.6	i	1	93
O=C(Cc1cn(Cc2cccc(Cl)c2)c2ccccc12)N1CCCC1	-79	33	0	-0.9	i	0.97	66
Cc1cc(C)nc(-n2nc(C)cc2NC(=O)c2cccc(S(=O)(=O)N3CCOCC3)c2)n1	nt	nt	-11	-0.5	i	0.84	104
C#CCOC(=O)C[N+](C)(C)CC#Cc1ccccc1	-35	85	-4	nt	i	1	104
Cc1cc(NCCN2CCOCC2)n2ncc(-c3ccc(Cl)cc3)c2n1	-24	111	-2	0.2	nt	nt	nt
CS(=O)(=O)N1CCC(C(=O)Nc2cc(C(F)(F)F)ccc2Cl)CC1	0	87	-12	0.4	i	0.89	100
COc1ccc(-c2ccc(-c3nnc(Cc4ccc(OC)c(OC)c4)o3)cc2)cc1	nt	nt	-2	2.4	i	0.97	89
Cc1ccc(C)c2c1cc(C)c1nnc(SCC(=O)c3cccs3)n12	3	94	11	-1.1	i	1	100
COc1cc(C)nc(NS(=O)(=O)c2ccc(C)cc2)n1	-3	79	-4	-1.7	i	0.95	109
Cc1ccc(S(=O)(=O)N(C)c2ccccc2C(=O)NC2CCCC2)cc1	18	100	0	-2.2	i	1	104
CN(Cc1ccccc1)S(=O)(=O)c1cccs1	50	96	-2	-2.0	i	1.1	99
COc1ccc(OCC(=O)Nc2cc(-c3nn4c(C)nnc4s3)ccc2C)cc1	nt	nt	-1	-2.0	i	1.5	106
CN1c2ccccc2-c2nc3ccccc3n2C1c1ccncc1 (stereo not given)	55	124	-2	0.4	i	0.91	99
